Source: PubChem BioAssay
CBX7 inh: CBX7 inhibition, primary AlphaScreen; O95931; AlphaScreen His6-CBX7 / biotin-H3K27me3 peptide binding; hits give low values; normalised signal (fraction of DMSO) (no concentration beside the values); hit rate 1.1% among 66,000; in the data active = normalised signal below about 0.5;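 note: 100 nL library stock added to about 20 µL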
Target sequence (O95931 whole entry, looked up): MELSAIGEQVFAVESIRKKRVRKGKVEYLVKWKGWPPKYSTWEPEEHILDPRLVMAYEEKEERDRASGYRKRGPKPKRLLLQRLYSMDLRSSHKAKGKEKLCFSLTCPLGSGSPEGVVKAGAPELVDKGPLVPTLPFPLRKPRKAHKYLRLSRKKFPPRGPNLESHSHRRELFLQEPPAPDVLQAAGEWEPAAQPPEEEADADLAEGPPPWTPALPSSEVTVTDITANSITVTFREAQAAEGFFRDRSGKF
CBX7 inh z-score: further read-out of CBX7 inh, marked with its call; z-score; measured here: z-score of CBX7 signal; some inactives read as strong as hits; reference of the scale not given here;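 same signal on another scale; lower means less binding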
Active calls of the source: *. Some of the compounds tested. The share of hits here may be higher or lower than overall.

Every second line gives: CBX7 inh, CBX7 inh z-score
Cc1ccc(NC(=O)N(C2CCCCC2)C(C)c2ccccn2)cc1C (configuration not stated)
  0.833, -2.43
COCCCNC(=O)CSc1nc(-c2ccc(F)cc2)[nH]c1-c1ccc(OC)cc1
  0.995, -0.14
Cc1ccc(S(=O)(=O)C2(C(=O)Nc3ccccc3C)CC2)cc1
  1.08, 2.88
COc1ccc(OC)c(Nc2nc(-c3ccccc3F)nc3ccccc23)c1
  1.32, 1.99
CCCCNC(=O)CSc1ncnc2nc[nH]c12
  1.03, 0.919
O=C(Nc1ccc(F)cc1F)c1cc(-c2ccccc2)nc2ccccc12
  1.17, 0.605
COc1ccc(Cl)cc1C(=O)Nc1nc2ccc(S(C)(=O)=O)cc2s1
  1, 0.073
COC(=O)c1cc2ccsc2n1CC(=O)N(C)c1ccccc1
  0.999, -0.0437
CCN(CC)S(=O)(=O)c1ccc2oc(C(=O)Nc3ccc(C)c(Cl)c3)c(C)c2c1
  0.986, -0.55
O=C(C1CCC1)N1CCc2cc(S(=O)(=O)NCc3ccccc3Cl)ccc21
  0.94, -2.01
O=S(=O)(Nc1ccc(F)c(Cl)c1)c1cnc[nH]1
  0.931, -1.13
Cc1cccc(C(=O)Nc2cccc(-c3nc4cc(Cl)ccc4o3)c2)c1
  1.05, 1.37
Cc1oc2ccccc2c1-c1cn2c(n1)SCC2
  0.89, -1.31
O=C1CCc2cc(S(=O)(=O)NC3CCN(Cc4ccccc4)CC3)ccc2N1
  1.01, 0.339
c1ccc(CN2CCC(NCCc3c[nH]c4ccccc34)CC2)cc1
  0.902, -3.67
CCOc1ccc(-c2cc(C(=O)NCc3ccccc3)c3ccccc3n2)cc1
  1.02, 0.599
COc1ccc(NC(=O)c2cc(-c3ccccc3OC)on2)cc1OC
  0.934, -1.76
CCN1CCCC1CNC(=O)c1cc2c(-c3cccc(OC)c3)nn(C)c2s1 (configuration not stated)
  0.976, -0.307
CCn1c(C(=O)N2CCC(C(=O)N3CCN(c4ccccn4)CC3)CC2)cc2sccc21
  0.891, -0.481
COc1cccc(C(=O)NC(C)C(c2cccs2)N2CCN(c3ccccc3F)CC2)c1 (configuration not stated)
  0.705, -3.12

3 consecutive compounds out of the list so far:
Every second line gives: CBX7 inh, CBX7 inh z-score
CCCCNC(=O)CSc1ncnc2nc[nH]c12
  1.03, 0.919
O=C(Nc1ccc(F)cc1F)c1cc(-c2ccccc2)nc2ccccc12
  1.17, 0.605
COc1ccc(Cl)cc1C(=O)Nc1nc2ccc(S(C)(=O)=O)cc2s1
  1, 0.073

(more compounds)
Every second line gives: CBX7 inh, CBX7 inh z-score
O=c1[nH]c2ccccc2nc1Cc1ccc(F)cc1
  1.13, 3.95
Cn1c(C(=O)N2CCC(C(=O)NCCc3ccccc3)CC2)cc2sccc21
  1.03, 0.626
CCCCCOc1ccc(C(=O)Nc2ccccc2-c2nc3ccccc3[nH]2)cc1
  1.09, 0.315
COc1ccc(Br)cc1C(=O)Nc1ccc2oc(-c3cccnc3)nc2c1
  1.04, 0.0565
O=C(c1ccccc1F)N1CCN(Cc2ccncc2)CC1
  1.06, 1.53
Cc1cc(Cl)cc2c1N=C(c1ccc(Br)cc1)NN=C2c1ccccc1
  0.591, -10.2
CC1CCN(C(=O)C2CCN(C(=O)c3cc4sccc4n3Cc3ccc(Cl)cc3)CC2)CC1
  0.992, -0.324
COc1ccc(NC(=O)Cc2cn(Cc3cccc(Cl)c3)c3ccccc23)c(OC)c1
  1.02, 0.458
CCCN(CCC)CCCNS(=O)(=O)c1ccc2c(c1)CCN2C(C)=O
  0.829, -0.691
Cc1ccc(C(=O)Nc2ccccc2)cc1S(=O)(=O)Nc1ccc(Cl)cn1
  1.08, 1.74
O=C(Nc1ccccc1-c1nc2ccccc2s1)c1ccc(N2C(=O)CCC2=O)cc1
  0.985, -0.287
Cc1ccc(-c2noc(C(C)(C)Oc3ccc(Cl)cc3)n2)cc1
  1.35, 9.99
CCC(Cc1ccccc1)NC(=O)CC1Oc2ccc(C)cc2NC1=O (configuration not stated)
  1.03, 0.623
CCc1cccc(NC(=O)C2CCCN(S(=O)(=O)c3cccs3)C2)c1 (configuration not stated)
  1.05, 1.78
NC(=O)C1CCN(C(=O)CCCCn2c(=O)[nH]c3ccccc3c2=O)CC1
  1.12, 0.326
O=C(CSc1nccn1-c1ccc(Cl)cc1)Nc1cccc(F)c1
  0.704, -1.05
Cc1ccc2oc(-c3ccc(Cl)c(NC(=O)Cc4ccccc4)c3)nc2c1
  1.02, 0.554
Cn1c(SCc2nc3ccccc3n2Cc2ccccc2)nc2ccccc21
  1.02, 0.707
COc1ccc(-n2nc(C(=O)Nc3ccc(C(C)C)cc3)c3ccccc3c2=O)cc1
  1, 0.0112
Cc1nn(C)c(C)c1S(=O)(=O)N(CC(=O)N1CCC(C(N)=O)CC1)c1ccc(C(C)C)cc1
  0.942, -0.899

An excerpt of these results, with each value named:
Cc1cc(Cl)cc2c1N=C(c1ccc(Br)cc1)NN=C2c1ccccc1
  CBX7 inh = 0.591
  CBX7 inh z-score = -10.2
CC1CCN(C(=O)C2CCN(C(=O)c3cc4sccc4n3Cc3ccc(Cl)cc3)CC2)CC1
  CBX7 inh = 0.992
  CBX7 inh z-score = -0.324
COc1ccc(NC(=O)Cc2cn(Cc3cccc(Cl)c3)c3ccccc23)c(OC)c1
  CBX7 inh = 1.02
  CBX7 inh z-score = 0.458
CCCN(CCC)CCCNS(=O)(=O)c1ccc2c(c1)CCN2C(C)=O
  CBX7 inh = 0.829
  CBX7 inh z-score = -0.691

(cont.)
Every second line gives: CBX7 inh, CBX7 inh z-score
OC1(CC#CCN2CCCCC2)c2ccccc2-c2ccccc21
  0.979, -0.132
COc1cc2ccccc2cc1C(=O)Nc1nc2c(s1)CCc1ccccc1-2
  1.29, 12.1
O=C(CSc1ncnc2ccccc12)N1CCN(c2ccccc2)CC1
  1.04, 1.15
CCCCNC(=O)c1c[nH]c2ccc(S(=O)(=O)N(CC)c3cccc(C)c3)cc2c1=O
  1.14, 2.12
Cc1ccc2oc(-c3cccc(N)c3)nc2c1
  1.1, 1.39
COc1ccc(C2Nc3ccc4ncccc4c3C3=C2C(=O)CCC3)c(OC)c1 (configuration not stated)
  1.06, 1.49
COc1ccccc1C(=O)Nc1c(-c2ccc(F)cc2)nc2ccccn12
  0.97, -0.707
CCOc1ccc(-c2cn(-c3ccc(OC)cc3)c(SCC(=O)Nc3cccc(C)c3C)n2)cc1
  0.856, -4.74
O=C(Nc1ccc(F)cc1)c1cnc(N2CCN(c3ncccn3)CC2)c2ccccc12
  1.08, 3.14
CCOc1ccccc1Nc1cc(C)nc2c(C)cccc12
  1.08, 0.842
Brc1ccc(-c2cn3nc(COc4ccccc4)n4c3c2CCCC4)cc1
  1.01, 0.0986
CC1CCN(CCCNC(=O)C2CCC(=O)N2C2CCCC2)CC1 (configuration not stated)
  1.01, 0.205
Cc1ccc(C)c(NC(=O)Nc2cc3sccc3n2C)c1
  1.02, 0.582
Cc1cc2c(cc(C(=O)O)n2Cc2ccc(Cl)cc2)o1
  0.985, -0.412
COc1ccc(-n2nc3c(c2NC(=O)c2cccc(Cl)c2)CSC3)cc1
  0.97, -0.677
Cc1ccc(S(=O)(=O)c2nc(-c3cccs3)oc2SC(C)c2ccccc2)cc1 (configuration not stated)
  1, 0.00568
COc1ccc(NC(=O)Cn2cnc3sc(C)c(C)c3c2=O)cc1Cl
  0.953, -1.27
Oc1ccc(-c2nc(-c3ccccc3)c(-c3cccs3)[nH]2)cc1
  0.467*, -3.34*
CCOC(=O)c1ccc(NC(=O)C2CCN(S(=O)(=O)c3ccccc3)CC2)cc1
  0.977, -0.569
CCn1c2ccccc2c2cc(NC(=O)Cn3ncc4c3-c3ccccc3OC4)ccc21
  0.905, -2.72
CCOc1ccc(N2C(=O)CC(NCCc3ccc(OCC)c(OCC)c3)C2=O)cc1 (configuration not stated)
  0.976, -0.563
CCOC(=O)c1[nH]c2ccc(Cl)cc2c1CCCN1C(=O)c2ccccc2C1=O
  1.03, 0.714
Cc1oc(-c2ccccc2F)nc1CN1CCC(C(=O)NCc2ccc3c(c2)OCO3)CC1
  0.946, -1.39
COc1ccc(-c2cc3nc(C)c(CCC(=O)Nc4ccc(OC)c(Cl)c4)c(C)n3n2)c(OC)c1
  0.976, -0.307
Cc1ccc2c(c1)N(CCC(=O)NCCCOC(C)C)C(=O)CO2
  1.09, 1.58
Cc1ccc(-n2c(/C=C/c3c(C)n(C)c4ccccc34)nc3ccccc3c2=O)cc1
  0.682, -3.46
CCOC(=O)N1CCC(Nc2c(NCc3cccnc3)c(=O)c2=O)CC1
  1.04, 0.612
Cc1ccc(C)c(Nc2cc(C(=O)NC3CCCC3)c3ccccc3n2)c1
  1.03, 0.924
CCC(C(=O)NCCc1ccc(S(N)(=O)=O)cc1)n1ncc2ccccc21 (configuration not stated)
  0.968, -0.92
COc1cccc(-c2nc(CS(=O)(=O)CC(=O)N(C)CCC#N)c(C)o2)c1
  1.28, 2.35
N#Cc1c(NC(=O)c2cc(-c3ccc(Br)cc3)on2)sc2c1CCCC2
  0.985, -0.626
COc1cc2c(cc1OC)-c1nnc(-c3ccco3)n1C(C)(C)C2
  0.941, -1.01
O=C(O)c1cnc(N2CCN(c3ncccn3)CC2)c2ccccc12
  1.03, 0.109
Cc1sc2ncn(CC(=O)NCCCC(=O)NC3CCCCC3)c(=O)c2c1C
  1.04, 0.446
COc1cccc(-n2ccnc2SCC(=O)NCc2ccccc2)c1
  1.14, 2.55
COc1cccc(CNC(=O)C(NS(=O)(=O)c2ccc3c(c2)CCC(=O)N3)c2ccccc2)c1 (configuration not stated)
  1.04, 1.65
COc1ccc(Cl)cc1NC(=O)c1ccc2c(=O)n3c(nc2c1)CCCCC3
  1.05, 1.97
O=C(c1n[nH]c(=O)c2ccccc12)N1CCN(c2ccccn2)CC1
  1.09, 0.588
COc1cccc(CNS(=O)(=O)c2ccc3c(c2)n(C)c(=O)c(=O)n3C)c1
  1.04, 0.312
CCN(C(=O)CCc1nc(-c2ccc(OC)cc2)no1)c1ccccc1F
  0.916, -0.084

Remaining list, next part:
SMILES	CBX7 inh	CBX7 inh z-score
CCOC(=O)c1cnc2ccc(OC)cc2c1NCCCN1CCOCC1	0.976	-0.0837
CCCCOc1ccc(C(=O)N(Cc2cccc(Cl)c2)C2CCS(=O)(=O)C2)cc1 (configuration not stated)	0.889	-0.111
COc1ccccc1CNC(=O)c1cc(=O)[nH]c2ccc(S(=O)(=O)N3CCCC(C)C3)cc12 (configuration not stated)	1.02	0.309
Cc1ccc(-n2c3c(cc(C(=O)Nc4ccc(Br)cn4)c2=O)C(=O)CCC3)cc1	1.02	0.218
CC(C)(C)c1ccc(-c2nnc(NC(=O)c3cccs3)s2)cc1	1.23	0.52
CCOc1ccc(-n2ccnc2SCC(=O)Nc2ccc(OC)cc2OC)cc1	0.967	-0.262
O=C(NCc1ccc2c(c1)OCO2)C1CCC(=O)N1CCc1ccccc1 (configuration not stated)	1.05	2.16
Cc1cc(C)cc(NC(=O)C2CCCN2S(=O)(=O)c2ccc3c(c2)CCC(=O)N3)c1 (configuration not stated)	1	0.0568
Nc1c(C(=O)c2ccc(Cl)cc2)sc2nc3c(cc12)CCCC3	1	-0.00555
Clc1ccc(-n2ncnc2-c2cccnc2)cc1	0.966	-0.667
Cc1ccccc1CN1C(=O)CSc2ccc(C(=O)NC3CC3)cc21	1.09	0.904
Cc1cccc(NC(=O)C2CCN(S(=O)(=O)c3ccc4c(c3)CCC(=O)N4)CC2)n1	0.943	-0.971
CC1CCCC(C)N1c1nc(-c2cccs2)cc(C(F)(F)F)n1 (configuration not stated)	1.36	2.9
Cc1ccc(Cn2nnc3c(=O)n(CC(=O)NC4CCCCC4)cnc32)cc1	1.05	0.891
COc1ccc(CN2CC(C(=O)NCc3cccc(OC)c3)CC2=O)cc1 (configuration not stated)	1.1	1.83
CCC1Oc2ccccc2N(CC(=O)NCC2CCCO2)C1=O (configuration not stated)	1.13	1.86
O=C(Nc1ccc(F)c(Cl)c1)c1cc(-c2ccc3c(c2)OCO3)on1	0.971	-0.792
COc1ccc(C(=O)NCCc2c(C)[nH]c3ccc(F)cc23)cc1OC	0.984	-0.153
Cc1ccccc1Nc1nnc(-c2ccc(C)c(S(=O)(=O)NCc3ccccn3)c2)c2ccccc12	0.918	-1.18
CCc1ccccc1NC(=O)CC1Nc2cc(C)c(C)cc2NC1=O (configuration not stated)	1.02	0.239
C=CCN(c1ccccc1)S(=O)(=O)c1ccc2[nH]cc(C(=O)NCc3ccc(C)cc3)c(=O)c2c1	0.977	-0.647
Cc1cccc(NC(=O)Cn2c(=O)n(CCc3c[nH]c4ccccc34)c(=O)c3cccnc32)c1	0.824	-5.74
O=C(CN1CCCC1)NC1(Cc2ccc(O)cc2)CCCCC1	0.929	-0.798
CCC(C)NC(=O)CS(=O)(=O)Cc1nc(-c2ccc(C)cc2)oc1C (configuration not stated)	1.08	0.192
C=C(C)Cn1c(CNC(=O)c2ccc(F)cc2)nc2ccccc21	0.875	-1.44
CN1CCN(CC(=O)Nc2c3c(nc4ccccc24)CCCC3)CC1	0.996	-0.0398
COc1ccc(C(=O)Nc2c3c(nn2-c2ccc(F)cc2)CSC3)cc1	1.12	2.07
COc1ccc(C2C(Oc3ccccc3)C(=O)N2c2ccc(C)c(C)c2)cc1OC (configuration not stated)	1	0.0691
CCc1c(-c2ccccc2)nc2ccccc2c1C(=O)NCc1ccc(F)cc1	0.915	-1.12
COc1ccc(C(=O)Nc2nc3ccccc3s2)cc1	1.02	0.023
COc1ccc(OCCn2c(=N)n(CC(N)=O)c3ccccc32)cc1	0.95	-1.5
c1ccc(CCNc2nc(-c3ccccc3)nc3ccccc23)cc1	1.14	1.73
O=C(Cn1cnc2c(nnn2Cc2ccc(F)cc2)c1=O)Nc1ccc(Cl)cc1	0.802	-3.25
CCOCCCNC(=O)c1cc2sc(Cl)cc2n1C	1.02	0.87
COc1ccc(OC)c(CNc2sc3c(c2C(=O)Nc2cc(Cl)ccc2OC)CCC3)c1	0.981	-0.505
